HPGD block: HPGD (human) dehydrogenase inhibition | purified HPGD, NADH fluorescence kinetic, PGE2 substrate | Potency, µM, for inactives: at the top dose activity change, negative = inhibition, most hits filed as inhibitors | 4.3% of 150,000 active | AID 894; active = well fitted inhibition curve with a large enough effect (not every such curve was filed as active); inconclusive = small, poorly fitted or top-dose-only effect, or another doubt; inactive = no such curve, though single readings can be large or run the other way;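 also: top concentration of the series not given in the record; plate controls included wells without enzyme; inactives centre near -10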
Target sequence (P15428 whole entry, looked up): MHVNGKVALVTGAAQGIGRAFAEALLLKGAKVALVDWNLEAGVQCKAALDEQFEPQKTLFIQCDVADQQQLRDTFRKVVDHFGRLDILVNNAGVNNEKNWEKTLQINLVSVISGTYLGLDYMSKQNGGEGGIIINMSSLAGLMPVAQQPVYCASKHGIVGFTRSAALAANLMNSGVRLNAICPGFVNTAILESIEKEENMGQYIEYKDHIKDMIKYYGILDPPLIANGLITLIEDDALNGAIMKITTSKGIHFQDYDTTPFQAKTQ
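20 nM HPGD preincubated 15 min at room temperature with compound in 50 mM Tris-HCl pH 8, 0.01% Tween 20. Started with 1 mM NAD+ and 30 uM prostaglandin E2; NADH fluorescence (360/450 nm) read 5 times over 30-s intervals, last minus first.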
* marks the source's active call; other numbers are inactive results; ? = inconclusive; & = joins results of further samples. % is scaled to controls: 0 for no effect and ±100 for the full control effect; potency is read from the fitted curve at half-maximal effect.

HPGD block	Molecule
-10.3%	O=C(O)c1cn(Cc2ccccc2)c2ccccc2c1=O
28.2µM*	COc1cccc(NC(=O)CSc2ccccn2)c1
-19.6%	CCOC(=O)C1=C(C)NC(SC(C)=O)=NC1c1ccc(OC(C)=O)c(OC)c1 (stereo not drawn)
-2.8%	CN(C)C(=O)Cn1c(SCC(=O)NC2CCCCC2)nc2ccccc21
-9.7%	O=C(O)CC(SCc1ccc(C(=O)O)o1)C(=O)O (stereo not drawn)
-11.1%	COc1ccc(C(=O)n2c(-c3ccco3)nc3ccccc32)cc1
-16.2%	C=CCn1c(=O)c2ccccc2n2c(SCc3nc(N)nc(Nc4ccccc4C)n3)nnc12
?	Cc1cccc(C(=O)Nc2ccccc2-c2nnn(CC(=O)Nc3ccc4c(c3)OCCO4)n2)c1
-8.2%	CNC(=O)CN(C1CCCCC1)S(=O)(=O)c1ccc(OC)c(Cl)c1
-27.2%	C=C1CC(C(=O)N/N=C/c2ccccc2)C1
-7.8%	Cc1cc(C)c2c3c(sc2n1)C(=O)N(Cc1ccccc1)CC(=O)N3
0.1%	c1ccc2c(c1)Cc1cc(CN3CCOCC3)ccc1-2
-21.2%	Cc1ccc(CSCC(=O)N/N=C/c2cccc(OC3CSC3)c2)cc1
?	Cc1ccc(C(=O)COC(=O)c2cc(Cl)nc3ccccc23)cc1
4.9%	CC(=O)C(C(C)=O)C(NC(=O)c1cccnc1)(C(F)(F)F)C(F)(F)F
-21.8%	COc1cccc(N2CC(C(=O)Nc3nnc(SCC(=O)c4ccccc4)s3)CC2=O)c1 (stereo not drawn)
3.9%	CC(c1nnc(SCC(=O)N2CC(=O)Nc3ccccc32)n1Cc1ccccc1)N(C)C (stereo not drawn)
-11.0%	Cc1cc(C(F)F)nn1CC(=O)NCc1ccccc1F
-1.8%	O=C(Cn1cnc2ccccc21)Nc1cc(C(F)(F)F)ccc1N1CCOCC1
-4.6%	O=C(CCCCn1c(=O)c2ccccc2n(CC(=O)Nc2ccc(F)cc2)c1=O)NCc1ccco1
-9.8%	O=C(Nc1ccc2c(c1)OCO2)C1Cc2ccccc2CN1S(=O)(=O)c1cccs1 (stereo not drawn)
-2.9%	O=C(Cc1ccccc1)Nc1ccc(NC(=O)C2CC2)nc1
-9.7%	Cc1cc(C)c(/C=N/n2c(C)cc(C)c(C#N)c2=O)c(C)c1
-10.4%	O=c1cc(C(F)(F)C(F)F)oc2ccccc12
-5.2%	Cc1nn(C)c(C)c1S(=O)(=O)N(CC(=O)NCCN1CCOCC1)c1ccc(C(C)C)cc1
-0.7%	CCCCC1=CC2=C(OC(C)=O)C(=O)C(C)(OC(=O)c3ccco3)C(=O)C2=CO1 (stereo not drawn)
-15.9%	CNC(=O)c1ccsc1NC(=O)c1ccc(S(=O)(=O)N2CCc3ccccc32)cc1
-4.3%	CCn1c2ccccc2c2cc(NC(=O)c3ccco3)ccc21
-14.5%	O=C(CN1CCCC1=O)NC1(C(F)(F)F)NC(=O)N(Cc2ccccc2)C1=O (stereo not drawn)
-9.8%	Cc1ccc(-n2nnnc2SCC(=O)N2CCc3ccccc3C2)c(C)c1

HPGD block	Molecule
-10.4%	COc1cccc(C2NC(=O)c3sc(=S)n(-c4ccccc4)c3N2)c1 (stereo not drawn)
-10.3%	O=c1c(-c2ccc(F)c(F)c2)nc2cncnc2n1Cc1ccccc1
-12.9%	CC(C)CCN=Cc1c(O)n(-c2ccccc2)c(=O)c2ccccc12
-2.6%	Nc1nc(SCC(=O)C23CC4CC(CC(C4)C2)C3)n[nH]1
-12.0%	COc1ccc(OC)c(N2C(=O)CC(Cc3ccc(Cl)cc3)C2=O)c1 (stereo not drawn)
-10.6%	CS(=O)(=O)N(CC(=O)NCCSc1ccc(Cl)cc1)c1ccc2c(c1)OCO2
-0.5%	COc1ccc(NC(=O)c2ccc(CNS(=O)(=O)c3cccc(OC)c3)cc2)cc1
-20.1%	CCCCC(CC)CNC(=O)c1ccc2c(c1)OCO2 (stereo not drawn)
-13.9%	COC(=O)[C@@]1(Cc2ccc(F)cc2)[C@H]2c3cc(C(=O)N(C)C)n(Cc4ccc(C)c(F)c4F)c3C[C@H]2CN1C(=O)c1ccccc1
-3.7%	Nc1nnnn1N=C1CCCCC1
-5.4%	CC(=O)N(C)c1ccc(NC(=O)c2ccc([N+](=O)[O-])cc2Cl)cc1
4.1%	CC(Sc1nncs1)C(=O)Nc1ccc(Cl)cn1 (stereo not drawn)
-3.4%	Cn1nc(C(=O)NCc2ccccn2)c2ccccc2c1=O
-8.3%	O=[N+]([O-])c1cccc(Cl)c1N1CCOCC1
0.6%	COc1ccccc1N(CN1CCCC1=O)C(=O)c1c(F)cccc1F
-9.4%	CCn1cnc2sc(C(=O)N3CCN(c4ccc(OC)cc4)CC3)c(C)c2c1=O
-9.5%&-7.2%	CC(=O)/C=C(/C)NC(Cc1c[nH]c2ccccc12)C(=O)O (stereo not drawn)
-8.6%	COc1ccc(-c2nnn(CC(=O)c3ccccc3)n2)cc1OC
-7.9%	CSc1ccccc1C(=O)Nc1cccc(C(C)O)c1 (stereo not drawn)
-10.4%	CCOC(CNC(=O)c1ccc2nc(N3CCC(C)CC3)sc2c1)OCC
-7.5%	CCOCCCNC(=O)Cc1ccc(F)cc1
2µM*	COc1ccc(C(=O)c2c[nH]c(C(=O)NCC3CCCO3)c2)cc1 (stereo not drawn)
-13.6%	COc1ccc(CNC(=O)CN(Cc2ccccc2)S(=O)(=O)c2ccc(Cl)cc2)cc1
0.8%	CC(C)CCNC(=O)CCSCCC(=O)NCCC(C)C
-12.3%	COc1ccc(OC)c(NC(=O)CCN2CCC(C)CC2)c1
-2.5%	COc1cccc(C(=O)CSc2nnc(-c3ccco3)n2CC2CCCO2)c1 (stereo not drawn)
?	COc1cccc2sc(NC(=O)c3ccc(Br)s3)nc12
?	COc1ccc2oc(=O)c(C(=O)NCC3CCCO3)cc2c1 (stereo not drawn)
-9.1%	CCCCNc1c(C(=O)OCC)c(=O)[nH]c2ccccc12
-8.4%	CC(C)C1=CC(=NS(=O)(=O)c2cccc([N+](=O)[O-])c2)C=C(C(C)C)C1=O

Filtered by structure, those above containing a nitro group on carbon.
HPGD block	Molecule
-5.4%	CC(=O)N(C)c1ccc(NC(=O)c2ccc([N+](=O)[O-])cc2Cl)cc1
-8.3%	O=[N+]([O-])c1cccc(Cl)c1N1CCOCC1
-8.4%	CC(C)C1=CC(=NS(=O)(=O)c2cccc([N+](=O)[O-])c2)C=C(C(C)C)C1=O

Other results follow:
HPGD block	Molecule
?	COc1ccc2nc(NC(=O)c3cccc(-c4cc5ccccc5oc4=O)c3)sc2c1
-9.4%	Cc1ccc(CNC(=O)COC(=O)[C@@H]2CC(O)CN2S(=O)(=O)c2ccc3c(c2)OCCO3)cc1 (stereo partly drawn)
1.9%	CCOC(=O)N1CCC(NC(=O)C2CCCN2C(=O)OCc2ccccc2)CC1 (stereo not drawn)
?	CC1=C(C(=O)OCC2CCCO2)C(c2ccncc2)C2=C(CCCC2=O)N1 (stereo not drawn)
-12.0%	O=C(CSc1nc2ccccc2[nH]1)N1CCN(c2ccccc2)CC1
22.4µM*	CCOC(=O)c1cc(-c2ccc(/C=C3/C(=O)NC(=O)C(C#N)=C3C)o2)ccc1Cl
-19.1%	Cc1ncsc1CCOC(=O)C12CC3CC(CC(C3)C1)C2
-30.9%	CCOC(=O)N1CCC(Nc2c(-c3ccc(C)cc3)c(=O)c2=O)CC1
-15.2%	O=C(NCc1ccco1)c1ccc(COCC(F)(F)F)cc1
-13.6%	CN(C)c1ccc(P(=O)(Nc2ccccc2)N2CCOCC2)c(NC(=O)c2cccs2)c1 (stereo not drawn)
1.4%	CCOC(=O)N1CCN(S(=O)(=O)c2c(C)[nH]c(=O)[nH]c2=O)CC1
-14.3%	Nc1nnnn1/N=C/c1ccc(N2CCCCC2)c([N+](=O)[O-])c1
-6.6%	CCn1c(=O)cc(OCC(=O)Nc2ccccc2C#N)c2ccccc21
-10.2%	Cc1ccc(S(=O)(=O)N2CCCN(S(=O)(=O)c3ccc(C)cc3)CC2)cc1
-6.3%	COc1cc(C2C(C#N)=C(C)NC3=C2C(=O)c2ccccc23)cc(OC)c1OC (stereo not drawn)
-26.2%	Cc1ccc(-c2ccc(/C=N/n3cnnc3)o2)cc1Cl
-5.3%	CC(O)CNc1nc2c(c(=O)n(C)c(=O)n2C)n1Cc1cccc(Br)c1 (stereo not drawn)
?	Cc1cccc(OCC(=O)Nc2ccc3c(C)cc(=O)oc3c2)c1
-4.4%	O=C(Nc1ccc([N+](=O)[O-])cc1)Nc1ccc(OC(F)F)c(Cl)c1
-0.3%	CCCS(=O)(=O)O
17.8µM*	CCn1cc(/C=C2/SC(=S)NC2=O)c(C)n1
-0.6%	Cc1nn(C)c(=O)n1-c1ccc(OCc2ccccc2)cc1
?	Nc1ccc(Sc2ccccc2CC(=O)O)cc1
-0.3%	CC(=O)N1CCc2cc(S(=O)(=O)NCCC(=O)NCCc3ccc(C)cc3)ccc21
-5.5%	O=[N+]([O-])c1ccc(Sc2ccccc2)nc1
?	Cc1ccc(C(=O)C(c2ccccc2)N2Cc3ccccc3C2=N)cc1 (stereo not drawn)
-22.8%	CC1C/C(=C/c2cccn2C)C(=O)/C(=C/c2cccn2C)C1 (stereo not drawn)
-16.8%	Cc1onc(-c2ccccc2)c1C(=O)Nc1nnc(N2CCCCCC2)s1
?	Cn1c(N)c(C(=O)COC(=O)c2cc(-c3ccco3)nc3ccccc23)c(=O)n(Cc2ccccc2)c1=O
5.7%	Cn1c(=O)n(CC(=O)Nc2ccccc2)c2ccccc21

HPGD block	Molecule
-43.6%	CCOC(=O)C1CCCN(C(=O)c2sc3nc(-c4ccc(F)cc4)cn3c2C)C1 (stereo not drawn)
-4.2%	CCOC(=O)Cc1csc(NC(=O)c2sc3nc4cc(C)ccc4cc3c2N)n1
-9.0%	CC(CN1CCOCC1)OC(=O)C(C)(c1ccccc1)c1ccccc1 (stereo not drawn)
-10.8%	CCCC12C(=O)C(C)(C(c3ccccc3)=C1c1ccccc1)C1C(=O)N(c3ccc(C)cc3)C(=O)C12 (stereo not drawn)
1.4%	COc1ccc(NC(=O)C(Cc2ccccc2)NC(=O)c2ccco2)cc1OC (stereo not drawn)
-13.9%	CCOc1ccc(NC(=O)Cc2ccccc2)c([N+](=O)[O-])c1
-1.3%	COc1ccc(OC)c(C(=O)CSc2nc3ccccc3n2CC(=O)NC(C)(C)C)c1
-17.7%	CCOc1ccccc1C1CC(=O)Nc2cc(OC)c(OC)c(OC)c21 (stereo not drawn)
-18.6%	COc1ccccc1Oc1cc(C#N)c(C#N)cc1-n1nnc2ccccc21
-11.1%	Cc1cc(C)c(NC(=O)/C(=C/c2ccco2)c2ccccc2)c(C)c1
?	Cc1cc(-c2ccccc2)c2nncn2n1
-17.9%	COC(=O)CN(c1ccc(F)cc1)S(=O)(=O)c1ccc2c(c1)OCCO2
-10.1%	CCCc1nc2ccccc2c(C(=O)OCC(=O)Nc2c(C)n(C)n(-c3ccccc3)c2=O)c1CC
-5.9%	CCOC(=O)C1=C(C)OC(N)=C(C#N)C1c1ccoc1 (stereo not drawn)
-2.7%	CSCCC(NC(=O)c1ccco1)C(=O)OCC(=O)Nc1sccc1C#N (stereo not drawn)
-25.3%	Cc1nn(-c2ccccc2)c(C)c1/C=N/NC(=O)CSc1nnc(SCc2ccccc2Cl)s1
-6.5%	Cc1cc(C)n2nc(C(=O)N3CCOCC3)nc2n1
-9.8%&-13.4%	CCCCC[C@H](O)/C=C/[C@@H]1[C@@H](C/C=C\CCCC(=O)O)[C@H]2CO[C@@H]1C2
-19.4%	Cc1ccc(CNC(=O)C2CC(=O)N(C3CCCCCCC3)C2)cc1 (stereo not drawn)
-22.4%	COCCn1c(C)cc(C(=O)CSc2ncnc3sc4c(c23)CCC4)c1C
?	COc1ccc(-c2nnc(SCC(=O)c3ccc[nH]3)n2-c2ccccc2)cc1
-21.4%	CC(C)NC(=O)c1onc(CSc2ccc(F)c(F)c2)c1C(=O)O
-6.1%	Nc1nnnn1/N=C/C=C/c1ccccc1
-24.8%	CCOC(=O)c1sc(=S)n(-c2ccccc2)c1N
-8.7%	Cc1nnc(Sc2nc3c(c(=O)[nH]c(=O)n3C)n2CCCc2ccccc2)s1
-6.3%	CCO/C=C1/C(=O)N(C(C)=O)c2ccccc21
-9.8%	COCCSc1ccccc1C(=O)N1CCOCC1
1.4%	CCCCC(O)CN1CCC(c2ccccc2)CC1 (stereo not drawn)
-4.0%	COc1ccc(C2(C(=O)NCc3ccco3)CCCC2)cc1OC
-13.7%	COc1cccc(CNC(=O)C2CCCN(c3nc4ccccc4o3)C2)c1 (stereo not drawn)
-9.9%	CSc1nn(-c2ccc(C(=O)OCC(=O)NC(=O)NC(C)C)cc2)c(=S)s1
-8.9%	O=C(CNS(=O)(=O)c1ccc2ccccc2c1)OCc1nnc(-c2ccccc2)o1
-1.9%	O=C(/C=C/c1cccs1)N1CCN(Cc2ccc3c(c2)OCO3)CC1

Three structures already listed, ordered by heavy-atom count, descending.
HPGD block	Molecule
-43.6%	CCOC(=O)C1CCCN(C(=O)c2sc3nc(-c4ccc(F)cc4)cn3c2C)C1 (stereo not drawn)
-1.9%	O=C(/C=C/c1cccs1)N1CCN(Cc2ccc3c(c2)OCO3)CC1
-6.3%	CCO/C=C1/C(=O)N(C(C)=O)c2ccccc21

HPGD block, what is marked active above
HPGD block	Molecule
28.2µM*	COc1cccc(NC(=O)CSc2ccccn2)c1
2µM*	COc1ccc(C(=O)c2c[nH]c(C(=O)NCC3CCCO3)c2)cc1 (stereo not drawn)
22.4µM*	CCOC(=O)c1cc(-c2ccc(/C=C3/C(=O)NC(=O)C(C#N)=C3C)o2)ccc1Cl
17.8µM*	CCn1cc(/C=C2/SC(=S)NC2=O)c(C)n1

Assay outcomes as filed in PubChem BioAssay.

Not all compounds are listed (hit frequency here may not be typical).
